Bioassay records as filed in PubChem.
miR-21 FLuc: raises the signal of a miR-21 reporter | AID 2288 | HeLa miR-21 FLuc reporter, luciferase, 48 h | 340,000 tested, under 10 active | Potency, µM (top dose mostly 38.3 µM), for inactives: at the top dose reporter change, positive = more light; active = well fitted rising curve with a large enough effect; inconclusive = small, poorly fitted or top-dose-only effect; inactive = no such curve, though single readings can be large or run the other way;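 also: % of control where 0% means no effect; miR-21 action dims this reporter so a rising signal means less miR-21 action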
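HeLa cells endogenously expressing miR-21, stably carrying CMV-driven firefly luciferase with a downstream miR-21 binding site, 2000 cells/well. Titrations up to approximately 40 uM, 48 hours; luciferase luminescence read.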
GLA inh pH 4.5: blocks human alpha-galactosidase A at pH 4.5 | purified enzyme, 4-MU-alpha-Gal fluorescence, pH 4.5 | activity change, negative = inhibition, % at 105 µM | 230,000 tested, under 10 active | AID 1467; inconclusive = small, poorly fitted or top-dose-only inhibition, or a rising curve; inactive = flat fitted curve, though single readings scatter; no compound was filed as active;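 also: 0% = full activity with enzyme and -100% = basal without enzyme; dose as in the result columns while the protocol names 77 µM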
Target sequence (P06280 whole entry, looked up): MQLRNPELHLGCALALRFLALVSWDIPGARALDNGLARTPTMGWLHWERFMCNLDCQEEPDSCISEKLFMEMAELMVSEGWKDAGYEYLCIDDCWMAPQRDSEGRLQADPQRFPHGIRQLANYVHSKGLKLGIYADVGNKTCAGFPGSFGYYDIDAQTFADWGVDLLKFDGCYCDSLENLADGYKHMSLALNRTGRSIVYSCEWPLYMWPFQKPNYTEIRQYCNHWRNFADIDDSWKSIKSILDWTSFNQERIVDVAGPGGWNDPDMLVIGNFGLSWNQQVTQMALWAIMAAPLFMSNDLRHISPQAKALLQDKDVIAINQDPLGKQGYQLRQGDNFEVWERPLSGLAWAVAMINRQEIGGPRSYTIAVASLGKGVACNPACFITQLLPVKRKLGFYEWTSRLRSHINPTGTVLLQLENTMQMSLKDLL
Rango release inh: prevents RanGTP from dissociating the Rango-importin beta complex; Biochemical FRET Rango-importin beta, RanGTP-induced dissociation; Potency, µM (doses to about 46.1 µM), for inactives: at the top dose activity change, negative = inhibition; hit rate 0.071% among 340,000; active means falling FRET ratio curve, often poorly fitted, with flat reads before Ran was added; inconclusive means other falling curves, or compound fluorescence or quenching; inactive means flat or rising ratio curve;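 also: potency is read from the fitted curve at half-maximal effect; % of control where 0% means no effect; nearly all actives have a fitted effect of over 45% in size; -100% = wells without RanGTP and RCC1; the record marks most hits as doubtful in a second field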
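Quantitative HTS using a FRET biosensor: 0.1 uM Rango, 0.25 uM importin beta, 0.6 uM Ran, 2 mM GTP, 0.2 uM RCC1 final, PBS with DTT, Tween-20 and BSA. Post-read taken 45 min after Ran addition.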
Rango-impB inh: prevents formation of the Rango-importin beta complex; Q14974; Rango CFP/YFP FRET sensor + importin beta, 45 min; Potency, µM (titrated, usually from 92.2 µM), for inactives: top-dose inhibition of complex formation; hit rate 0.031% among 340,000; AID 540263; active = rising FRET ratio curve, often small or poorly fitted; inconclusive = mostly compound fluorescence or quenching in the first reads; inactive = flat curves in all reads;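 also: potency is read from the fitted curve at half-maximal effect; 0% = DMSO wells and 100% = buffer wells lacking importin beta; nearly all actives have a fitted effect of over 15% in size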
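Inhibition scored from the CFP 486 nm/YFP 530 nm FRET ratio 45 min after adding 0.125 microM importin beta to 50 nM Rango biosensor preincubated 5 min with compound (room temperature, PBS with DTT, Tween-20, BSA). No-importin wells as positive control.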
Starred values were filed as active, the others as inactive; ? = inconclusive; / = no result given. Some of the compounds tested, so the mix of outcomes need not match the whole.

structure,Rango release inh,GLA inh pH 4.5,miR-21 FLuc,Rango-impB inh
COc1ccc(-c2csc3ncnc(N4CCN(C(=O)c5ccco5)CC4)c23)cc1,1%,/,/,-1.5%
C=CCN(CC=C)S(=O)(=O)c1ncn[nH]1,1%,-1,-3%,0.1%
COc1cccc(/C=N/NC(=O)c2c(C)nc3ccc(Cl)cn23)c1OC,0%,/,-3%,3.1%
CC1=NN(C(=O)c2ccc(C)cc2)C(O)(C(F)(F)OC(F)(F)F)C1 (stereo not given),0%,-2,-24%,-2.0%
COC(=O)[C@@H](NCc1ccc(B(O)O)cc1)C(C)C,-2%,/,/,0.0%
Cc1cc(=O)oc2cc(OCCc3ccccc3)ccc12,0%,/,-20%,1.5%
CCOC(=O)c1c(C)[nH]c(C)c1C(=O)CSc1nc2ccccc2c(=O)n1-c1ccc(CC)cc1,2%,-4,1%,-0.5%
CC(=O)Nc1ccc(NC(=O)C(C)OC(=O)C2CC3C=CC2C3)cc1 (stereo not given),3%,5,-2%,?
CSc1cccc(NC(=O)c2ccc(CN3CCc4ccccc4C3)cc2)c1,-1%,/,16%,-3.7%
C/C(=N\NC(=O)c1c[nH]c2ccccc12)c1ccco1,11%,-16,-49%,2.8%
COc1ccc(CCNC(=O)C/C(C)=N/NC(=O)c2ccc(Cl)cc2Cl)cc1OC,-2%,/,-6%,-0.8%
COc1ccccc1/C=C1\SC(=S)N(CCC(=O)Nc2nnc(C)s2)C1=O,-11%,/,5%,1.8%
CC(=C/c1ccccc1)/C=N/n1c(-c2ccco2)n[nH]c1=S,-6%,-13,-4%,-0.1%
Cc1cc(C)cc(NC(=O)C(NCC2CCCO2)c2ccccc2)c1 (stereo not given),-3%,7,-1%,-4.8%
c1ccc(CN(CCN2CCOCC2)Cc2ccccc2)cc1,-11%,/,/,-3.0%
CC(C)(C)OC(=O)CN1C(=O)NC(Cc2c[nH]c3ccccc23)C1=O (stereo not given),0%,/,-5%,-0.3%
FC(F)(F)c1cccc(Cc2noc(CN3C[C@@H]4CCC[C@H]3C4)n2)c1,-3%,-17,-3%,3.2%
O=C(c1ccco1)N1CCN(Cc2cccc([N+](=O)[O-])c2)CC1,-1%,-15,-3%,0.3%
CC(C)(C)c1ccc(C(=O)Nc2ccccc2C(=O)NCCN2CCOCC2)cc1,-19%,/,-44%,0.8%
CN(CC(=O)NCc1ccncc1)S(=O)(=O)c1ccc2ccccc2c1,-2%,3,-3%,-3.0%
Nc1ccc2c(C(F)(F)F)cc(=O)oc2c1,?,4,-12%,?
COc1ccc(CCNC(=O)C2CCC(=O)N(CCc3ccc(OC)cc3)C2)cc1 (stereo not given),-8%,/,-3%,1.3%
CC1CCCCC1NC(=O)C1CCN(S(=O)(=O)N2CCOCC2)CC1 (stereo not given),-18%,-18,-1%,-1.7%
O=C(COC(=O)C1CCN(c2ccc(C(F)(F)F)cn2)CC1)c1ccc(F)cc1,16%,/,/,-0.5%
Cc1nn(-c2ccccc2)c(C)c1/C=N/n1c(-c2ccccc2Br)n[nH]c1=S,-11%,-9,-14%,0.5%
CCOC(=O)N1CCN(Cc2nc3c(c(=O)n(C)c(=O)n3C)n2Cc2cc(C)ccc2C)CC1,/,3,-10%,/
C=CCNC(=O)C1CCN(S(=O)(=O)c2ccccc2)CC1,31%,7,-4%,-1.8%
Nc1nc(Cl)cc(Oc2ccccc2F)n1,7%,-4,-5%,-1.4%
COc1ccc(NC(=O)C2C3C=CC4(O3)C2C(=O)N(CCCN2CCCCC2)C4C(=O)NC2CCCC(C)C2C)cc1 (stereo not given),3%,/,1%,3.2%
NC(=O)C1(N2CCCCC2)CCN(C(=S)Nc2ccc(F)c(Cl)c2)CC1,-15%,-10,-6%,-1.7%
Cc1cc(NC(=O)COC(=O)C2CCN(S(=O)(=O)c3ccc(Cl)cc3)CC2)no1,3%,3,2%,0.9%
CCOC(=O)c1cnc2ccc(C)cc2c1OCc1cc(F)cc(F)c1,-6%,-11,0%,4.5%
CCOC(=O)c1cn(-c2ccccc2CO)c2c(F)c(F)c(F)cc2c1=O,7%,-8,-3%,-2.6%
COc1ccc(Br)cc1S(=O)(=O)Nc1ccc(Cl)cn1,10%,/,-5%,5.8%
COc1ccccc1-c1cn(-c2ccccc2)c(=S)[nH]1,-15%,/,1%,-0.7%
COc1cc2c(cc1OC)CN(C(=O)c1cccc([N+](=O)[O-])c1)CC2,2%,-1,5%,-2.0%
Cc1cc(C)c(NC(=O)CN2CCCCCC2)c(C)c1,4%,/,-26%,0.9%
CC(C[N+](C)(C)C)OC(=O)C1(c2ccccc2)CCCC1 (stereo not given),8%,2,-2%,-0.2%
O=C(COC(=O)COc1ccc(Nc2ccccc2)cc1)NCc1ccco1,-3%,-9,-4%,-1.0%
CCOc1ccc(C2Oc3nc(SC)nnc3-c3ccccc3N2C(C)=O)cc1OC (stereo not given),3%,-4,2%,-1.2%

Grouped by structure, the compounds so far with an aryl thioether with sulfur outside any ring.
structure,Rango release inh,GLA inh pH 4.5,miR-21 FLuc,Rango-impB inh
CCOC(=O)c1c(C)[nH]c(C)c1C(=O)CSc1nc2ccccc2c(=O)n1-c1ccc(CC)cc1,2%,-4,1%,-0.5%
CSc1cccc(NC(=O)c2ccc(CN3CCc4ccccc4C3)cc2)c1,-1%,/,16%,-3.7%
CCOc1ccc(C2Oc3nc(SC)nnc3-c3ccccc3N2C(C)=O)cc1OC (stereo not given),3%,-4,2%,-1.2%

Remaining list, next part.
structure,Rango release inh,GLA inh pH 4.5,miR-21 FLuc,Rango-impB inh
Cc1ccc(N2C(=O)CC2(C#N)c2ccc(OCc3ccccc3)cc2)cc1 (stereo not given),-18%,-3,-14%,1.0%
Nc1nc(Cl)cc(=O)n1Cc1ccc(Cl)cc1,0%,/,/,1.7%
C=CCOc1c2ccc(C(=O)NCCc3ccc(C)cc3)cc2nn1C,0%,19,-9%,0.1%
O=C(Cc1ccc(Br)cc1)NC1CCCc2ccccc21 (stereo not given),19%,/,-3%,-0.9%
COc1ccccc1N(C)S(=O)(=O)c1ccc(C(=O)NC2CCCCCC2)cc1,11%,-8,15%,0.5%
N#CC1=C2N=C(N)c3c(sc4c3CCCCC4)N2C2=C(C(=O)CCC2)C1c1ccccc1 (stereo not given),-9%,2,-29%,17%
COC(=O)c1sc(SC)c(S(=O)(=O)C(C)C)c1N/N=C(\C#N)S(=O)(=O)c1ccccn1,1%,-5,-10%,0.7%
CCOC(=O)N1CCN(C(=O)c2ccc(C)c(S(=O)(=O)Nc3cccc(C)c3C)c2)CC1,1%,-7,-3%,0.7%
NC(=O)c1ccc(-c2ccc(Br)cc2)o1,15%,-4,-57%,5.8%
O=C(c1ccccc1)N1CCN(C(=O)c2ccccc2)c2ccccc21,-14%,/,/,3.7%
Cc1ccc(CNC(=O)CCC2CCCN(Cc3c(C)nn(C(C)C)c3C)C2)o1 (stereo not given),1%,1,-1%,2.5%
Cn1c(N)c(C(=O)COC(=O)CNC(=O)c2ccccc2F)c(=O)n(C)c1=O,10%,/,/,-3.4%
Cc1ccnc(NS(=O)(=O)c2ccc(NS(=O)(=O)c3ccccc3)cc2)n1,-5%,-8,-2%,-4.9%
O=S(=O)(c1cccc2nsnc12)N1CCCC1,-19%,/,17%,3.6%
CCOc1ccc(N(CC(=O)N2CCOCC2)S(=O)(=O)c2ccc(F)cc2)cc1,-5%,/,4%,-0.9%
COc1ccc2c(=O)c3c(=O)n(Cc4ccco4)c(-c4ccco4)nc3oc2c1,-11%,3,-3%,-6.2%
CC(C)Cc1nnc(NC(=O)CCNC(=O)c2ccco2)s1,20%,/,-3%,-0.8%
CN1CCN(C(=O)/C(=C\c2cccs2)NC(=O)c2ccco2)CC1,0%,-9,-2%,4.4%
CCCCC(CCCC)=N/N=C/c1c(O)n(CC)c2cc(C3=NNC(=O)CC3)ccc12,?,-28,-13%,?
CN(C)S(=O)(=O)n1cc(/C=C(\NC(=O)c2ccccc2F)C(=O)NCCCN2CCOCC2)c2ccccc21,-2%,/,4%,2.8%
CC(=O)Nc1nc(-c2ccc(Cl)cc2)nc(C)c1C(C)=O,?,12,-31%,3.4%
CC1=CC2=NC(=O)/C(=C\c3ccc(OC(=O)c4ccco4)cc3)C(=N)N2O1,-8%,-2,-1%,?
CCOc1cc(-n2nc(C)c(C#N)c2N)nc(SC)n1,/,-2,0%,/
COc1ccccc1NC(=O)C(=O)NCC1COc2ccccc2O1 (stereo not given),25%,-4,-16%,-2.7%
CCCCCCC(=O)N(O)C1CC(=O)N(c2ccc(C)cc2)C1=O (stereo not given),-9%,5,16%,-1.9%
Cc1cc(N2CCN(C(=O)c3ccco3)CC2)n2nc(-c3cccc(Cl)c3)cc2n1,32%,4,-2%,-2.0%
CC(C)NC(=O)CC(c1ccccc1)c1cc(Br)ccc1O (stereo not given),9%,-10,7%,3.6%
CC(C)CCCCCCCCCCCCC(=O)NCC(=O)NC1C(C)OC(Nc2ncnc3nc[nH]c23)C(O)C1O (stereo not given),3%,/,/,?
COc1ccc(CC(=O)Nc2ccc(S(=O)(=O)Nc3onc(C)c3C)cc2)cc1OC,-8%,/,0%,1.6%
NN(Cc1ccccc1)C(=S)Nc1ccc(Cl)c(Cl)c1,-1%,/,1%,4.1%
CCOC(=O)c1cnn(CCOC(=O)C(C)(C)C)c1NC(=O)C(C)(C)C,-8%,2,-4%,-3.1%
O=C(Nc1cc(C(=O)N2CCCC2)ccc1N1CCCC1)C1CC1,-2%,1,1%,-3.9%
COCCCNC(=O)Cn1c(=O)n(CCCCCC(=O)Nc2ccccc2)c(=O)c2sccc21,2%,-5,-11%,-2.5%
O=C(Nc1ccc(F)cc1)c1ccc(S(=O)(=O)NCc2cccnc2)cc1,-14%,/,12%,1.4%
CCOC(=O)c1nn(-c2cccc(Cl)c2)c(C)c1C(C)=O,-3%,-4,-9%,-0.9%
COC(=O)COc1ccc(S(=O)(=O)N2CCCCCC2)cc1C,-2%,/,0%,0.0%
N#C/C(C(=O)N1CCCCC1)=C1/N=C(N)c2ccccc21,21%,-18,-32%,3.2%
CCOC(=O)N1CCN(C(=O)c2cc(C)c3c(C)nn(-c4ccccc4)c3n2)CC1,3%,3,-7%,0.6%
Cc1ccc(-c2noc(CNS(=O)(=O)c3ccccc3)n2)cc1,1%,/,-29%,-5.3%
CCN(CC(=O)Nc1cc(Cl)ccc1-n1cncn1)Cc1nc2ccccc2c(=O)[nH]1,-6%,/,/,3.4%
O=C1CC(N2CCOCC2)C(=O)N1Cc1ccc(N2CCCC2=O)cc1 (stereo not given),-11%,5,-2%,2.5%
O=C1c2cccc3cccc(c23)C(=O)N1Cc1cccnc1,6%,-2,-7%,0.9%
CN(C)S(=O)(=O)c1ccc(/C(O)=C2/C(=O)C(=O)N(CCCN3CCOCC3)C2c2ccncc2)cc1 (stereo not given),3%,/,/,2.8%
COc1ccc(Br)cc1CNC(=O)C1CCCN(S(C)(=O)=O)C1 (stereo not given),1%,-3,0%,-2.0%
O=C(NCc1ccccc1Cl)c1cccc(C(F)(F)F)c1,1%,-15,-12%,0.7%
